D2 agonist = Beta-Arrestin HTS for Positive Allosteric Modulators of the Human D2 Dopamine Receptor: Agonists; D(2) dopamine receptor (Homo sapiens), P14416; DiscoveRx PathHunter D2 beta-arrestin, luminescence, 90 min; 100% = 57 uM dopamine signal; activation, % (test concentration not listed); 0.084% of 360,000 active; AID 624465, 2012; in the data active = activation above about 40%; inconclusive = about 15% to 40%; inactive = below about 15%; also: compound concentration not given in the record; the text of the record calls up to 30% inactive
Target sequence (P14416 whole entry, looked up): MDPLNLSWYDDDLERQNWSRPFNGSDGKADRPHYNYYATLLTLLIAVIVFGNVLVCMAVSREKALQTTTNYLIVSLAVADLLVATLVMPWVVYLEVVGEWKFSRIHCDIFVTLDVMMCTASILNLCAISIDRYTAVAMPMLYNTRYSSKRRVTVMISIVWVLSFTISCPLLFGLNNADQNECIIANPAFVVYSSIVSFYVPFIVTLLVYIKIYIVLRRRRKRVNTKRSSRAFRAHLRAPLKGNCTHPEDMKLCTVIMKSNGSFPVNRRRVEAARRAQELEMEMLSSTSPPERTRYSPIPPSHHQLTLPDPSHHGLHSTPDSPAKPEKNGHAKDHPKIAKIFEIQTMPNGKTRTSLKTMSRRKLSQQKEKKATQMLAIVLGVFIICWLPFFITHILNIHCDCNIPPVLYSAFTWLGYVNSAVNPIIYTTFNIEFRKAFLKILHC
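DiscoveRx PathHunter D2 beta-arrestin cells (2,100/well) attached overnight, then compound-stimulated 90 min at 37 C in HBSS/10 mM HEPES/0.1% Tween-20 buffer; beta-galactosidase complementation read by luminescence after 1 h at ambient temperature. Dopamine 57 uM final (EC100) as control.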
D2 PAM = Beta-Arrestin HTS for Positive Allosteric Modulators of the Human D2 Dopamine Receptor: Potentiators; D(2) dopamine receptor (Homo sapiens), P14416; DiscoveRx D2 beta-arrestin cells, luminescence, 90 min; 100% = 57 uM dopamine signal; potentiation, % (test concentration not listed); 0.23% of 360,000 active; active = potentiation of 50% or more; inconclusive = 30% to 50%; inactive = 30% or less;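 also: compound concentration not given in the record; tested on top of an EC20 dose of dopamine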
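D2 cells co-treated with compound plus 50 nM dopamine (EC20) for 90 min at 37 deg C to detect potentiation. Beta-arrestin recruitment was read as enzyme-fragment luminescence after 1 h at ambient temperature. Full response was set by 57 uM dopamine.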
PINK1 modulator = A Quantitative High throughput Screen to Identify Chemical Modulators of PINK1 Expression | PINK1 immunofluorescence, high-content cytometry, 24 h | Potency, µM (top dose mostly 76.6 µM), for inactives: at the top dose activation (PINK1 increase), hits mostly activators | 0.2% of 410,000 active | AID 624263, 2012; active = well fitted activation curve with a large enough effect; inconclusive = small, poorly fitted or top-dose-only effect; inactive = flat fitted curve, though single readings scatter; cell line not stated here;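 also: potency is read from the fitted curve at half-maximal effect; % of control where 0% means no effect; nearly all actives have a fitted effect of over 65% in size; a mitochondrial uncoupler was the plate control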
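Measures PINK1 amount and localization on or inside mitochondria by immunofluorescence. Stable cells get compounds at 5 concentrations for 24 hours before fixation and staining; CCCP controls included.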
CtBP-E1A inh = qHTS Assay for Inhibitors of the CtBP/E1A Interaction | AID 651724, 2012 | 0.49% of 340,000 active | CtBP / adenovirus E1A interaction (AlphaScreen) | AlphaScreen GST-E1A/His-CtBP binding, 1536-well; active compounds read low; control for the full effect not named in the record | activity change, % (no concentration beside the values); in the data active means activity change below about -65%; inconclusive means about -30% to -65%; inactive means above about -30%; also: % is scaled to controls: 0 for no effect and ±100 for the full control effect
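AlphaScreen with 125 nM GST-E1A and 125 nM His-CtBP (5X stocks) in Tris pH 8.0, 300 mM NaCl, BSA, Tween 20, TCEP. Compounds preincubated 2 h at 37 deg C, then glutathione donor/nickel acceptor beads added for 1 h at 37 deg C in dark.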
TRPML1 ag = qHTS for Agonists of the Human Mucolipin Transient Receptor Potential 1 (TRPML1). Mucolipin-1 (Homo sapiens), Q9GZU1. TRPML1-expressing cells, Ca2+ dye fluorescence, FDSS; host cell line not named in the record; reference of the full effect not given here. activation, % (no concentration beside the values). 0.12% of 410,000 active; in the data active = activation above about 50%; inconclusive = about 30% to 50%; inactive = below about 30%; also: 0% is about no effect; the text of the record puts the active cut at 80%
Target sequence (Q9GZU1 whole entry, looked up): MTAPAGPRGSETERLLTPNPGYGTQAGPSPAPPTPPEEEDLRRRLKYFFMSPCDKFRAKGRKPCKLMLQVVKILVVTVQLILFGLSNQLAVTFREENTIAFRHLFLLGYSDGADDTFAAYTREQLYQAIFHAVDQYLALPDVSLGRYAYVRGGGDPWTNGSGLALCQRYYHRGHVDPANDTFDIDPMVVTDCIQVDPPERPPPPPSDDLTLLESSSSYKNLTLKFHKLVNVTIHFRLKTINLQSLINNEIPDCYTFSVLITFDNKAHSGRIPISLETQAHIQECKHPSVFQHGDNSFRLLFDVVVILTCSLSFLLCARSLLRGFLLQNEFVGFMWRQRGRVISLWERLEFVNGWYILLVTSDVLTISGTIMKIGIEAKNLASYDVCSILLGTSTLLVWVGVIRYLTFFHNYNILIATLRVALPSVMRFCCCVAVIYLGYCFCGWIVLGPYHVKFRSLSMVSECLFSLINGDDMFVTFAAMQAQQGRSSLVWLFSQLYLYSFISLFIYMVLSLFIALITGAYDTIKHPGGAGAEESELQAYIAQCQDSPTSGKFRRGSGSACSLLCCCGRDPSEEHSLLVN
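In this qHTS format, compounds were pin-transferred onto Ca8-dye-loaded TRPML1-DL cells induced with Tet overnight, and intracellular Ca2+ fluorescence was recorded kinetically for 110 s after a 10 s baseline. A subsequent 4uM final 54-4 (EC80) addition followed by a second 110 s read served as the antagonist phase.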
Six1-Eya2 blk = qHTS Assay for Inhibitors of the Six1/Eya2 Interaction; Homeobox protein SIX1 (Homo sapiens) + Protein phosphatase EYA2 (Homo sapiens), …; AlphaScreen GST-Six1/His-Eya2 binding, biochemical; active compounds read low; control for the full effect not named in the record; activity change, % (test concentration not listed); 0.56% of 360,000 active; in the data active = activity change below about -65%; inconclusive = about -30% to -65%; inactive = above about -30%; also: % is scaled to controls: 0 for no effect and ±100 for the full control effect
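Six1/Eya2 binding was read as AlphaScreen signal after compounds were pinned into GST-Six1 plus His-tagged Eya2 (5X stock 250/500 nM) in pH 8.0 Tris/NaCl/TCEP buffer, beads added, then incubated 1 h, 37 C, dark.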
Numbers without * were called inactive; ? = inconclusive; · = no result given; & = joins results of further samples; [ ] = another dose, or the depositor's remark.

Screens in order – D2 agonist, D2 PAM, PINK1 modulator, CtBP-E1A inh, TRPML1 ag, Six1-Eya2 blk
- COC(=O)c1ccccc1NC(=O)CN(Cc1ccc(Cl)cc1)S(C)(=O)=O
  0.7, 9, -0.6%[38.3 µM], -13, 0.5, -10
- CC(=O)c1ccc(N(CC(=O)NC2CCCCC2)C(=O)CNC(=O)c2ccco2)cc1
  -1.0, -5, 0.3%, -2, 0.0, -1
- O=C(C1=C(O)C(=O)N(Cc2ccco2)C1c1cccc([N+](=O)[O-])c1)c1ccco1 (stereo not drawn)
  -5.0, -1, -3.8%, -24, 0.9, 6
- Nc1cccc2c1C(=O)c1ccc(Cl)cc1C2=O
  -0.4, -8, 1.5%, ?, 0.0, ?
- O=C(OCCN1CCOCC1)c1ccc2c(c1)OCCO2
  1.2, -25, 0.9%, -2, -0.1, 10
- Cc1ccc(S(=O)(=O)n2ccnc2)cc1C
  -5.6, -4, 1.1%, -3, 0.3, 16
- COC(=O)c1sccc1S(=O)(=O)NCc1ccc(S(N)(=O)=O)cc1
  -2.5, 18, 1.7%, 4, 0.6, 6
- CCCCOc1cccc(C(=O)Nc2ccccc2N2CCCC2)c1
  -0.6, -5, 12%, -10, -0.9, -3
- CCOc1cccc(-c2nn3c(-c4ccccn4)nnc3s2)c1
  -3.3, -18, 1.2%[38.3 µM], ?, 0.2, ?
- Cc1cccc(OC(C)C(=O)NCc2ccc(S(N)(=O)=O)cc2)c1 (stereo not drawn)
  -1.6, -17, 4.1%, 13, 0.3, 6
- Cc1ccc(NC(=O)CSc2ccc(C(N)=O)cc2[N+](=O)[O-])cc1C
  5.3, 2, 4.7%, -1, -0.5, -6
- Cc1cccc(OCC(=O)OC2CCN(C)CC2)c1
  -3.3, -8, 4.6%, 1, -0.5, 5
- O=C(CN(c1ccc(F)cc1)S(=O)(=O)c1ccc2c(c1)OCCO2)N1CCOCC1
  -1.2, -1, 0.2%, 7, -1.0, -3
- CCNc1nc(NCC)n2c(SCC(=O)Nc3ccccc3OC(F)F)nnc2n1
  2.0, -20, -0.2%, 7, -0.6, 3
- COc1ccc(NC(NC(=O)c2cccnc2)C(Cl)(Cl)Cl)cc1 (stereo not drawn)
  2.1, -5, 2.5%, 5, -0.7, -1
- Cc1nc(C)c(C(=O)N/N=C/c2ccco2)s1
  3.2, -2, -0.2%, 2, -0.3, -6
- COc1ccc(C(C)=O)cc1COC(=O)c1ccc(S(=O)(=O)N2CCOCC2)cc1
  1.6, 1, 1.1%, 0, -0.2, 5
- CC(C)Oc1cccc(C(=O)C2CCCN(C(=O)c3cc(C4CC4)[nH]n3)C2)c1 (stereo not drawn)
  1.9, -13, -0.9%, 3, -1.4, 1
- CCCn1c(N)c(N(CCOC)C(=O)CSCC(=O)Nc2ccc(OC)cc2)c(=O)[nH]c1=O
  -4.5, -3, -1.0%, -2, 1.0, -6
- O=C(CSc1ccccc1C(=O)O)c1ccc(Cl)cc1
  -1.6, 1, 0.3%, -3, 1.4, -1
- CC1(C)Cc2cccc(OCC(=O)Nc3cc(C(F)(F)F)ccc3N3CCOCC3)c2O1
  -1.7, -4, 1.6%, -1, 0.5, 5
- Brc1ccc(-c2nnc3n2CCCCC3)cc1
  -0.4, -24, -0.8%, 18, -0.1, 5
- CN(C)c1nc2n(c(=O)n1)C(C#N)CS2 (stereo not drawn)
  -0.6, 2, -7.0%[38.3 µM], 0, 0.6, 3
- CCOC(=O)c1c(C)[nH]c2cc(Br)c(OC)cc12
  -0.4, -7, -1.2%, -15, -0.7, -21
- CCn1c(Cc2ccc(OC)cc2)nc2ccccc21
  -2.9, -10, -0.6%, -15, 1.1, 9
- COc1ccc(OC)c(CN2CCC(CO)(CCOc3ccccc3)CC2)c1
  0.7, -19, 1.2%, 1, -0.3, -4
- Cc1ccc(NC(=O)CN2C(=O)CSc3ccc(S(=O)(=O)N4CCCCC4)cc32)cc1
  1.6, -8, 2.4%, -5, 2.2, -1
- C/C(=N\NC(=O)c1c(C)nc2ccccn12)c1ccc(C(C)(C)C)cc1
  2.7, -5, 1.5%, 0, 2.6, 3
- Cc1ccc(N(C(=O)c2csnn2)C(C(=O)NC2CCCC2)c2ccccn2)cc1 (stereo not drawn)
  -1.3, -8, -0.4%, -7, 0.5, 1
- CCCCON1C(=O)c2cccc3cccc(c23)C1=O
  2.7, ?, 1.3%, ·, ·, -3
- CCOc1ccc(S(=O)(=O)NCCC(=O)NCCc2ccc(OCC)c(OCC)c2)cc1
  -1.7, -7, 0.8%, -2, -0.9, -2
- O=C(NCc1ccccc1F)c1cccc(S(=O)(=O)NCc2ccccc2)c1
  -1.9, 10, 1.3%, 9, 0.1, -1
- COc1ccc(NC(=O)CCC(=O)NCCO)cc1
  -3.5, -5, -0.3%, 8, 0.1, -2
- COc1ccccc1CNC(=O)CSc1nc(-c2ccccc2)cn1N
  -0.6, -9, -3.3%, -11, 6.0, -6
- Cc1ccc2nc(SCc3nc4cc(Cl)ccc4c(=O)[nH]3)[nH]c2c1
  -2.2, 14, 5.3%, 0, -0.6, -11
- CC(=O)Nc1ccc(S(=O)(=O)NCCC(=O)Nc2ccc(C)cn2)cc1
  -5.4, -5, 2.7%, -2, -0.2, 1
- CC1CC(C)CN(C(=O)COC(=O)c2cccc(S(=O)(=O)N(C)c3ccccc3)c2)C1 (stereo not drawn)
  0.0, -8, 7.1%, 0, 1.4, 14
- N=c1c2c3c(sc2ncn1Nc1ccccc1)CCC3
  -17, -23, -0.5%, ·, 0.2, 3
- O=C(O)C1=C[C@@H](c2ccccc2)C[C@@H](OCCCCO)O1
  -0.5, -30, 0.2%, 4, -0.3, 3
- COc1ccccc1C1=NOC(Cn2c(NCC3CCCO3)nc3c2c(=O)n(C)c(=O)n3C)C1 (stereo not drawn)
  -5.3, -4, -2.2%, 0, -0.5, 3
- COc1ccc(NC(=O)CS(=O)(=O)Cc2ccccc2)c([N+](=O)[O-])c1
  5.4, -13, 1.0%, -3, 0.6, 1
- CCN(CC)c1ccc(NC(=O)CCCCCN2C(=O)c3ccccc3C2=O)cc1
  -0.7, -5, -2.6%, -29, -0.2, ?
- O=C(NCCc1cccc(Cl)c1)c1ccc(OC2CCN(Cc3ccccn3)CC2)cc1
  0.1, -39, 2.1%, 0, 0.8, -7
- CCn1ccc(C(=O)N2CCN(c3ncccn3)CC2)n1
  5.3, 4, -0.7%, -9, -0.5, -12
- COc1ccc(-c2noc(CSc3nc(N)cc(=O)[nH]3)n2)cc1
  6.1, 5, 2.9%&3.9%, 3, 1.0, 0
- COc1cc(O)c(C(CCN2CCCC2)c2ccc3c(c2)OCO3)c(OC)c1 (stereo not drawn)
  3.9, -21, 0.2%, -17, 0.0&-0.4, -10
- CCOC(=O)c1sc(NC(=O)CCN2C(=O)c3cccc([N+](=O)[O-])c3C2=O)c(C(=O)OCC)c1C
  1.1, 9, -2.6%[38.3 µM], -5, 0.3, 0
- Cc1ccc(C)c(Cn2ncc3ccccc32)c1
  -3.8, -4, 3.2%, 19, 3.2, 1
- c1cc(Nc2ncnc3sccc23)cc(-c2nnc3n2CCCCC3)c1
  0.3, -9, 2.6%, -25, 0.6, ?
- CC(=O)Nc1nnc(CCN2CCCCC2)s1
  1.8, -4, -0.2%[38.3 µM], -2, 0.2, 3
- CCCNC(=O)c1cc(C2CCCCN2C(=O)c2ccc3ccccc3c2)on1 (stereo not drawn)
  -3.7, 0, 1.5%, 2, -0.9, 2
- Cc1ccc(Oc2ccccc2/C=C2\SC(=O)N(C)C2=O)cc1
  -3.9, -14, ?, 32, 0.3, 19
- Cc1cc(C)n2c(Nc3c(C)cccc3C)c(-c3cccnc3)nc2n1
  ·, ·, -0.6%, 2, -0.4, -1
- COC(=O)c1cc(S(=O)(=O)N2CCOCC2)c(Cl)cc1N1CCOCC1
  -5.0, -9, 0.6%, 8, -0.8, -1
- Cc1cc(C)c(S(C)(=O)=O)c(S(=O)c2ccc(Cl)cc2)n1 (stereo not drawn)
  -1.5, -7, -0.1%, 0, -1.2, -3
- O=C(O)c1ccc(Nc2ccc([N+](=O)[O-])c3nonc23)cc1
  -10, -14, -0.3%, -14, 0.5, 0
- O=C(CCC(=O)N(CC(=O)NC1CCCCC1)Cc1ccccc1)Nc1ccccn1
  0.1, -4, -0.5%, 7, -0.4, 10
- CCCCOc1ccc(S(=O)(=O)Nc2cc(OC)ccc2OC)cc1
  -2.6, -6, ·, 4, 0.3, -10
- COC(=O)Nc1ccc(S(=O)(=O)N2CCC(C(=O)N(C)C3CCCCC3)CC2)cc1
  -2.7, 1, -0.4%, -1, -1.2, 0
- CCOc1ncccc1C(=O)OCC(=O)Nc1cc(S(=O)(=O)N(CC)CC)ccc1C
  2.0, -8, 0.0%, -3, 0.6, -12

Compound profiles, as listed above:
Entry for `Cc1cc(C)n2c(Nc3c(C)cccc3C)c(-c3cccnc3)nc2n1` → D2 agonist: ·; D2 PAM: ·; PINK1 modulator: -0.6%; CtBP-E1A inh: 2; TRPML1 ag: -0.4; Six1-Eya2 blk: -1
Entry for `O=C(CCC(=O)N(CC(=O)NC1CCCCC1)Cc1ccccc1)Nc1ccccn1` → D2 agonist: 0.1; D2 PAM: -4; PINK1 modulator: -0.5%; CtBP-E1A inh: 7; TRPML1 ag: -0.4; Six1-Eya2 blk: 10

Next results:
Screens in order – D2 agonist, D2 PAM, PINK1 modulator, CtBP-E1A inh, TRPML1 ag, Six1-Eya2 blk
- CCCn1c(SCC(=O)N(C)C2CCS(=O)(=O)C2)nc2sc3c(c2c1=O)CCC3 (stereo not drawn)
  -0.2, -39, 1.8%, 24, 0.6, 16
- CCn1c(CNc2ccc(F)cc2)nnc1SCC(=O)Nc1ccc(OC)cc1
  -1.3, -31, -1.7%, -7, -0.5, -3
- CC(=O)N(CCCCl)C(C#N)c1ccccc1 (stereo not drawn)
  0.5, 2, -0.1%, 2, -0.6, 6
- CC(=O)c1ccc(N2CCN(C(=O)c3n[nH]c4ccccc34)CC2)cc1
  -2.6, -2, -0.6%, -15, 0.9, 0
- O=C(O)CCCCCN1C(=O)C(=O)/C(=C(/O)c2ccccc2)C1c1ccccc1 (stereo not drawn)
  -1.1, 0, -0.8%, 1, 0.3, 10
